Screening results: PubChem BioAssay, Johns Hopkins Ion Channel Center
KCNQ2 pot – enhances the rat KCNQ2 potassium channel; CHO-K1 KCNQ2, FluxOR thallium flux fluorescence; hits give high values; AID 2239; O88943; B-score at 10 µM; actives 0.54% (n = 310,000);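 active = fluorescence ratio B-score at least 3 SD of library B-scores, with initial fluorescence B-score within 3 SD, cut at about 5.3 in these data; same plate scores as AID 2156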;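 note: B-score of peak minus minimum over baseline fluorescence ratio after K+ and Tl+ stimulus; positive B-score means potentiation of KCNQ2 with more thallium influx and brighter signal; only the inactives scoring about 0 or higher are listed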
Target sequence (O88943 whole entry, looked up): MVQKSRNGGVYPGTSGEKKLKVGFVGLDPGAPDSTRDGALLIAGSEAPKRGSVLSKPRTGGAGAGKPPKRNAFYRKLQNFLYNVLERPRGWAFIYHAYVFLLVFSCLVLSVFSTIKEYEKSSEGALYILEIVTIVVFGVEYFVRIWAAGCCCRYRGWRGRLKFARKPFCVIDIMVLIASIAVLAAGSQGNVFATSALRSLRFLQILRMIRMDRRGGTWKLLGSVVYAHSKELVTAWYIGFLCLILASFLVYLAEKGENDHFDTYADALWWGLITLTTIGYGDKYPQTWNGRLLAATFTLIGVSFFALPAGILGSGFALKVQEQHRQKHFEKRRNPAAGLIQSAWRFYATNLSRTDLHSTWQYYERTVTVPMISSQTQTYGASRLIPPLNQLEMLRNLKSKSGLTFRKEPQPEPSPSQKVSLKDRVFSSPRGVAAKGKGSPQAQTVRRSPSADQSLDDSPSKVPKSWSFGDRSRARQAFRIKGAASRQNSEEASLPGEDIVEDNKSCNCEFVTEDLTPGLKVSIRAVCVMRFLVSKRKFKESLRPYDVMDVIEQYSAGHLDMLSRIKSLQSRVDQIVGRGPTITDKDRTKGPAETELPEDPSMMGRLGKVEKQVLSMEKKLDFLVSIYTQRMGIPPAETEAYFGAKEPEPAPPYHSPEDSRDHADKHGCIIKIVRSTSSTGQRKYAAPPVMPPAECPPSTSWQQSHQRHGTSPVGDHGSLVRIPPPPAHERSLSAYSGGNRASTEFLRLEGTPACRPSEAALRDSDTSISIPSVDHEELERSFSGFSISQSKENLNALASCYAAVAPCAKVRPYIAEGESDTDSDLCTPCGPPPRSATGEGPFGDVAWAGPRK
KCNQ2 pot baseline – second read-out of KCNQ2 pot, no call of its own (marks repeat the call); B-score; compound at 10 µM; measured here: initial fluorescence intensity artifact check;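 brightness before thallium and not channel activity; 0 = typical well and far values either way flag optical interference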
An asterisk follows results filed as active; . = not tested or not shown. Some of the compounds tested, so the mix of outcomes need not match the whole.

SMILES	KCNQ2 pot	KCNQ2 pot baseline
CCCC(c1nnnn1C1CCCCC1)N1CCN(C(=O)c2ccco2)CC1 (stereo unspecified)	1.8	1.2
Cc1cccc[n+]1CC(=O)Nc1ccccc1	0.07	-0.94
CCOc1ccc(NC(=S)NN(C)C(=S)Nc2ccc(OCC)cc2)cc1	0.38	-0.11
CCOC(=O)CNC(=O)C1CCCc2c1[nH]c1ccc(Cl)cc21 (stereo unspecified)	0.95	-1.1
CCOc1ccc(C(=O)OCC(=O)Nc2ccc(SC(F)F)cc2)cc1OCC	0.1	-0.72
CCOC(=O)C1CCN(C(=O)c2ccccc2NC(=O)C2=C(C)OCCS2)CC1	0.02	-0.12
COc1c(S(=O)(=O)N2CCCC2)ccc(Cl)c1Cl	1.3	0.62
Cc1cccc(C(C(=O)NC2CCCC2)N(Cc2cccnc2)C(=O)c2csnn2)c1 (stereo unspecified)	0.24	2.3
COc1ccc(CCNC(=O)c2ccc(Cl)cc2)cc1	0.15	0.13
COC1CCCN(C(=O)c2ccc3oc(Cc4ccc(Cl)cc4)nc3c2)C1 (stereo unspecified)	0.57	0.57
Cc1cc(-c2nnc(CCC(=O)NC(C)c3cccc4ccccc34)o2)no1 (stereo unspecified)	0.4	1.7
C/C(=N\NC(=O)C1(C)NC(C)(C)Cc2ccccc21)c1ccccc1 (stereo unspecified)	0.69	-0.86
C[C@@H]1NC(=O)N[C@@H]1CCCCCC(=O)O	1	0.45
COCCCNC(=O)c1ccc2c(=O)n(Cc3ccc(Cl)cc3)c(=S)[nH]c2c1	0.45	1.6
Cc1ccc(Cn2c(=N)c(C(=O)NCCN3CCOCC3)cc3c(=O)n4ccccc4nc32)cc1	0.8	0.62

Shown with two lines to a compound: part of the list above.
Every second line gives: KCNQ2 pot, KCNQ2 pot baseline
CCOC(=O)C1CCN(C(=O)c2ccccc2NC(=O)C2=C(C)OCCS2)CC1
  0.02, -0.12
COc1c(S(=O)(=O)N2CCCC2)ccc(Cl)c1Cl
  1.3, 0.62
Cc1cccc(C(C(=O)NC2CCCC2)N(Cc2cccnc2)C(=O)c2csnn2)c1 (stereo unspecified)
  0.24, 2.3
COc1ccc(CCNC(=O)c2ccc(Cl)cc2)cc1
  0.15, 0.13
COC1CCCN(C(=O)c2ccc3oc(Cc4ccc(Cl)cc4)nc3c2)C1 (stereo unspecified)
  0.57, 0.57
Cc1cc(-c2nnc(CCC(=O)NC(C)c3cccc4ccccc34)o2)no1 (stereo unspecified)
  0.4, 1.7

(further entries)
SMILES	KCNQ2 pot	KCNQ2 pot baseline
CCCCSC(=S)NC1CCS(=O)(=O)C1 (stereo unspecified)	0.1	0.76
COc1ccc(OC)c(S(=O)(=O)n2nnc3ccccc32)c1	0.71	-1.2
O=C(CNS(=O)(=O)c1ccccc1)Nc1ccc2c(c1)OCO2	0.03	0.57
CCOc1ccccc1N(C(=O)c1ccco1)C(C(=O)NC1CCCC1)c1cccnc1 (stereo unspecified)	1.1	0.53
O=C1c2ccccc2C(=O)c2[nH]cnc21	0.21	0.04
CNC(=S)N/N=C/c1cc(Br)cc(Br)c1O	7*	-0.71*
Fc1cccc(Cc2noc(CN3CCSCC3)n2)c1	0.84	-0.45
Cn1cc(S(=O)(=O)N2CCN(c3ccc(F)cc3)CC2)c(=O)n(C)c1=O	0.23	-0.35
NC(=O)c1ccc(NC(=O)COc2coc(CN3CCc4ccccc4C3)cc2=O)cc1	0.01	-0.61
O=c1cc2oc3cc(O)c(O)cc3c(-c3ccccc3[N+](=O)[O-])c-2cc1O	2.6	-1.3
CCN(CC(=O)NCc1cccs1)c1ccc(S(=O)(=O)N2CCOCC2)cn1	0.16	-2.7
CCCC(=O)C1=C(O)C(C(=O)OC)C(C)(C)CC1=NCc1ccccc1 (stereo unspecified)	0.86	-0.67
Cc1cccc(-n2ncc3c2CCCC3NC(=O)CCc2ccncc2)c1C (stereo unspecified)	0.05	0.2
COCCNC(=O)C1CCN(C(=O)c2cc3sccc3n2Cc2ccc(F)cc2)CC1	1.2	0.24
COc1cccc(Oc2c(C)oc3c(CN4CCCCC4)c(O)ccc3c2=O)c1	0.59	-0.33
O=C(Cc1ncc(C(F)(F)F)cc1Cl)NCCc1ccccn1	0.89	-0.96
c1ccc2c(-c3[nH]ncc3CNCCCn3ncc4ccccc43)cccc2c1	0.04	-0.05
Cc1cccc(NC(=O)Cn2c(O)c(N=NC(N)=S)c3ccccc32)c1	0.69	-0.35
CC(=O)c1cc2c(cc1NC(=O)c1ccc(C)cc1)OCO2	0.21	-1.4
CCN1C(=NCc2ccc(OC)cc2)N[C@@H](CCc2ccccc2)[C@H](C(=O)NCc2ccc(OC)cc2)[C@H]1C	1.1	1.2
O=C(O)C1=NN(c2c(F)c(F)cc(F)c2F)C(=O)CC1	0.55	-0.1
O=C(Nc1nc(-c2ccccn2)cs1)C1CC(=O)N(c2ccc3c(c2)OCCO3)C1 (stereo unspecified)	0.78	-0.68
CCOc1ccc(NC(=S)N/N=C(\C)Cc2ccc(OC)cc2)cc1	0.2	-1.4
Cc1ccc(S(=O)(=O)NC(=O)NN2CCCCCC2)cc1	1.2	0.09
CCOc1ccc(S(=O)(=O)c2c[nH]c3ccccc3c2=O)cc1	0.37	0.21
COc1ccc(C2CC(c3ccccc3)Nc3nc(NC(=O)c4cccs4)nn32)cc1 (stereo unspecified)	0.27	0.04
Cc1cccc(NC(=O)CCNC(=O)c2ccccc2Cl)n1	0.44	-0.11
O=C(NCC1COc2ccccc2O1)C1CCCN(S(=O)(=O)c2cccc3nsnc23)C1 (stereo unspecified)	1.8	1.5
CCN1CCCC1CNS(=O)(=O)c1ccc(F)c(Cl)c1 (stereo unspecified)	1.9	2.3
COc1ccc([N+](=O)[O-])cc1N(CC(O)CN1CCOCC1)S(=O)(=O)c1ccccc1 (stereo unspecified)	0.41	-0.33

Some values from above.
COc1ccc(C2CC(c3ccccc3)Nc3nc(NC(=O)c4cccs4)nn32)cc1 (stereo unspecified) in KCNQ2 pot → 0.27
O=C(O)C1=NN(c2c(F)c(F)cc(F)c2F)C(=O)CC1 in KCNQ2 pot baseline → -0.1

The listing continues.
SMILES	KCNQ2 pot	KCNQ2 pot baseline
CCCCNC(=O)[C@H]1N2C(=O)c3c(ccc(OC)c3OC)C2SC1(C)C (stereo partly specified)	0.62	0.29
O=C(Nc1cccc(F)c1)Nc1cccc(Cl)c1	3.4	-1.1
CC(NS(=O)(=O)c1ccc2c(c1)OCCO2)c1ccccc1 (stereo unspecified)	0.93	-1.3
CCOc1ccccc1NC(=O)Cn1c(=O)oc2cc(Cl)ccc21	0.07	0.69
Cc1ccc(/C=N/NC(=O)CSc2nc3ccccc3s2)o1	1.5	-0.06
CCOC(=O)c1sc(=S)n(-c2ccccc2)c1NC(C)=O	7.5*	0*
COC(=O)C1CCN(C(=O)Nc2ccccc2)CC1	0.74	2.1
CNc1nc(Sc2ccc(C)cc2)cc(C(F)(F)F)n1	0.6	-0.68
COC(=O)c1cc(C(=O)NCc2ccc3c(c2)OCO3)cc([N+](=O)[O-])c1	2.2	0.78
COc1ccc(S(=O)(=O)N2CCN(C(=O)c3cc(-c4ccc(C)cc4)n[nH]3)CC2)cc1	0.13	0.66
O=C(N/N=C/C1CC=CCC1)c1cc2ccccc2cc1O (stereo unspecified)	0.56	-0.37
COc1ccc(C(=O)OCC(=O)Nc2ccc(Cl)cn2)cc1	1.9	-0.1
Cc1cc(C)c(S(=O)(=O)N2CCCC(C(=O)NCc3ccncc3)C2)c(C)c1 (stereo unspecified)	1.1	-0.03
COc1ccc(C(CNC(=O)c2ccc(C)o2)N2CCOCC2)cc1 (stereo unspecified)	1.1	0
C=CCn1c(C)nc2c(sc3nc4c(cc32)COC(C)(C)C4)c1=O	0.44	0.01
COC(=O)c1ccc2c(c1)NC(=O)C1CCCN21 (stereo unspecified)	0.12	-0.04
O=C(CCCN1C(=O)/C(=C/c2ccccc2Cl)SC1=S)NNC(=O)c1ccc(Cl)cc1	0.17	0.24
C/C(=N\Nc1cc(N2CCOCC2)ncn1)c1ccc(O)cc1	0.46	-0.3
Cc1occc1C(=O)Nc1ccc2c(c1)CCC2	7.2*	0.67*
COc1ccccc1CN1C(=NC(=O)C2CCCCC2)SC2CS(=O)(=O)CC21 (stereo unspecified)	1.2	0.34
CCNc1ccc(P(=O)(c2ccccc2)c2ccccc2)cc1	0.85	-0.01
CC(=O)N1CCN(C(=O)CCc2nc3ccccc3c(=O)[nH]2)CC1	0.77	0.9
Cc1ccc(S(=O)(=O)N2c3ccc(S(N)(=O)=O)cc3CC2C)cc1 (stereo unspecified)	0.24	2
Cc1nc(C)n(CCNC(=O)c2ccco2)n1	0.6	-1.9
COc1ccc(OC)c(CCNC(=O)c2cccc(NC3=NC4CS(=O)(=O)CC4S3)c2)c1 (stereo unspecified)	0.18	-0.84
Cc1ccc(SCc2nc(-c3ccncc3)no2)cc1	0.08	0.56
COc1ccc(NN=Nc2ccc([N+](=O)[O-])cc2)cc1	1.3	1.2
CC1(C)NC(=O)N(CCSc2ccc(Cl)cc2)C1=O	1	0.04
Cn1c(O)c(C=NCC2CCNCC2)c(=O)n(C)c1=O	0.33	1.6
CN(CC(=O)Nc1cccc(F)c1)C(=O)c1cc2c(s1)CCCCC2	0.12	-0.52
COc1ccc(NC(=O)C(Sc2nnc(-c3ccncc3)n2-c2ccccc2C)c2ccccc2)cc1Cl (stereo unspecified)	-5.5	.
CCOCCCNC(=O)C(c1ccc(C)cc1)N(Cc1cccs1)C(=O)CNC(C)=O (stereo unspecified)	0.66	1.6
CC(C)N=C(NS(=O)(=O)c1cccs1)c1ccccc1	0.35	-2
O=C(CN1C(=O)NC2(CCCCC2)C1=O)N(Cc1ccco1)Cc1cccs1	0.62	1.4
CCSc1nnc(NC(=O)C(CC)(C(F)(F)F)C(F)(F)F)s1	0.42	3
COc1ccc2nc(NC(=O)CN3C(=O)NC4(CCCC4)C3=O)sc2c1	0.31	0
COc1ccc(CN(Cc2ccncc2)C(=O)CCC(=O)O)cc1	0.56	1
O=C1CCCN1CN(C(=O)c1ccc2c(c1)OCO2)c1ccc(F)cc1	0.99	-0.01
CC(=O)Oc1ccc2c(=O)c(-c3nc4ccccc4s3)coc2c1	0.07	-0.86
COc1ccc(Cc2nnn(CC(=O)O)n2)cc1	0.75	-0.5
NS(=O)(=O)c1ccc(S(=O)(=O)N2CCN(C3CCCC3)CC2)cc1	0.17	2.2
CCOC(=O)C1=C(COC(=O)CNC(=O)c2ccc(Cl)cc2Cl)NC(=O)NC1C (stereo unspecified)	0.82	0.43
CCC(C)NCCOCCOc1ccc(Cl)cc1Br (stereo unspecified)	2.6	0
Cc1ccc(NC(=O)C2CCN(S(=O)(=O)c3ccc4c(c3)NC(=O)C(C)S4)CC2)cc1C (stereo unspecified)	0.49	0.58
Cc1ccc(OCc2n[nH]c(=S)n2-c2ccccc2)cc1C	0.33	-0.83
Cc1ccc(CN2CCC(CNC(=O)c3ccc(NC(=O)C4=CSCCO4)cc3)CC2)cc1	1.5	0.75
CC1(C)C(=O)OC(c2cc(Br)ccc2O)C(C)(C)C1=O (stereo unspecified)	0.36	-0.64
COC(=O)c1ccc(NC(=O)CSc2nn3c(=O)c(C)nnc3s2)cc1	1.5	0.1
CC(=NCCCn1ccnc1)C1=C(O)c2ccccc2C1=O	0.26	2.7
O=C(NNc1nc(-c2ccc(F)cc2)cs1)c1ccccc1	4.6	-0.01
CCOc1ccccc1C(=O)NN1CCOCC1	0.01	0.54
Cc1nn(CC(=O)NC2CCC(C)CC2)c(=O)c(C#N)c1C (stereo unspecified)	0.49	0
COc1ccc(C(=O)N2CCN(Cc3ccccc3)CC2)cc1[N+](=O)[O-]	1.4	0.53
CCn1c(=O)c2cc(C(=O)N3CCOCC3)sc2c2ccccc21	1.8	1.3
COc1ccc(C(=O)NCC2(c3ccccc3)CCOCC2)cc1[N+](=O)[O-]	0.11	-1.4
O=C(CCc1nnc2ccc(NCc3ccco3)nn12)Nc1ccc(F)cc1	0.33	-1.1
Cc1ccnc(NS(=O)(=O)c2ccc(NS(=O)(=O)c3ccc([N+](=O)[O-])cc3)cc2)n1	0.07	0.1
CC1(C)CC(NC(=O)c2cccc(Cl)c2)CC(C)(C)N1	0.91	-0.02
CC(C)(C)NC(=O)C(c1cccnc1)N(C(=O)c1ccc(Cl)nc1)C1CCCC1 (stereo unspecified)	0.36	1.2
COc1ccc(CN(Cc2ccccn2)C(=O)CN2C(=O)COc3ccccc32)cc1	0.38	0.74

In the list so far, 3 have a CF3 group.
SMILES	KCNQ2 pot	KCNQ2 pot baseline
O=C(Cc1ncc(C(F)(F)F)cc1Cl)NCCc1ccccn1	0.89	-0.96
CNc1nc(Sc2ccc(C)cc2)cc(C(F)(F)F)n1	0.6	-0.68
CCSc1nnc(NC(=O)C(CC)(C(F)(F)F)C(F)(F)F)s1	0.42	3

Arranged by the number under KCNQ2 pot (high to low): three of the compounds above
SMILES | KCNQ2 pot | KCNQ2 pot baseline
CCCC(c1nnnn1C1CCCCC1)N1CCN(C(=O)c2ccco2)CC1 (stereo unspecified) | 1.8 | 1.2
CCOc1ccccc1N(C(=O)c1ccco1)C(C(=O)NC1CCCC1)c1cccnc1 (stereo unspecified) | 1.1 | 0.53
CCOc1ccccc1NC(=O)Cn1c(=O)oc2cc(Cl)ccc21 | 0.07 | 0.69

The list continues:
SMILES	KCNQ2 pot	KCNQ2 pot baseline
Cc1cc(NC(=O)CSc2ccc3nnc(-c4cccs4)n3n2)no1	1.5	-0.13
CCOC(=O)C1=C(C)C(c2ccccc2OC)NC(=O)N1 (stereo unspecified)	0.06	0.15
Cc1ccc(NC(=O)CCCCCNS(=O)(=O)c2ccc(C)cc2)cc1	1.4	-0.01
O=c1c2ccccc2[nH]c(=S)n1Cc1ccccc1	0.43	-0.12
COc1ccc(NC(=O)CSCCc2ccccn2)cc1OC	0.29	-0.85
CC(OC(=O)Cc1c[nH]c2ccccc12)C(=O)NC1(C#N)CCCCC1 (stereo unspecified)	1.4	-0.27
Cc1ccc2c(c1)N(CCC(=O)NCc1cccnc1)C(=O)CO2	0.3	-0.23
O=C(CC1(O)C(=O)Nc2ccc(Br)cc21)c1ccc2c(c1)OCO2 (stereo unspecified)	0.02	0.67
